FGF22 binding = binders of human FGF22 protein, primary screen, FGF22 synaptogenesis inhibitor project, biophysical, thermal shift, single point; 1.5% of 340,000 active; recombinant FGF22 thermal shift, SYPRO orange fluorescence; percent of sucrose octasulfate shift, DMSO zero; calls only at 9.99 µM; AID 651658, 2012;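 active = melting point raised past a set limit in the mean and every replicate; inconclusive = no clear call; three in four hits are not shown here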
Target sequence (Q9HCT0 whole entry, looked up): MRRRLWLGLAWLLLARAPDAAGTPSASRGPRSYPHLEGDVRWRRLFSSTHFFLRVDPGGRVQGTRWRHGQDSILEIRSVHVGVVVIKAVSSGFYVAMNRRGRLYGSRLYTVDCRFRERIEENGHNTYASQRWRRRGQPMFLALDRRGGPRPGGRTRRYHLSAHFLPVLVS
A1 inh = caspase 3/7 activation in MEF A1-2A-BIM cells, primary screen, A1 inhibitor project, cell-based, luminescence, HTS; AID 2462, 2010; caspase activation, % (test concentration not listed); Caspase-Glo 3/7 luminescence, 3 h; percent of clofoctol response, vehicle zero; 0.066% of 330,000 active;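 active = over half of replicate activation scores above 10%, or exactly half above 10 with the replicate mean above 10; inconclusive = replicate mean below 10 yet half the replicates above 10; inactive = over half of replicates below 10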;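 also: wells of about 30 µL received 50 nL stock; many hits fall short of the cut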
Beta cell apopt = inhibitors of cytokine-induced beta cell apoptosis, primary screen, luminescence; INS-1E cytokine-induced death, ATP luminescence, 48 h; percent of positive-control rescue, neutral wells zero; protection from apoptosis, % (no concentration beside the values); 0.8% of 300,000 active; AID 435005, 2010;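 active = all replicates at 75% or more, or half of them and the mean; inconclusive = half reach 75% but not the mean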;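 also: 0% = cytokine-treated negative control wells and 100% = positive control rescue; higher means more ATP so stronger rescue from cytokine killing; wells of about 40 µL received 100 nL stock; the first replicate is given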
T cruzi inh = inhibitors of intracellular T. cruzi growth, primary screen, luminescence, NIH3T3 host cells; inhibition, % (test concentration not listed); AID 1885, 2009; T. cruzi beta-gal in NIH3T3, 90 h; 1.4% of 300,000 active;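 active = mean inhibition across valid replicates above about 55%, limit read from the data; inconclusive = mean below that limit but half or more replicates reach it; inactive = mean below it, under half of replicates reach it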;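 also: signal also drops with host cell toxicity which is not excluded here; 0% = plate median of DMSO wells and 100% = zero luminescence signal; higher percent means less beta-gal luminescence so fewer parasites; stock transfer was 50 nL into about 50 µL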
E coli growth = E. coli growth inhibition, primary screen, OD600; Escherichia coli growth, 23 h; active compounds read low; 0.21% of 330,000 active; OD600 absorbance (test concentration not listed);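 active = OD600 absorbance below the run mean of sample wells minus 3.6 SD, in any replicate, cut at about 0.56 in these data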;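 also: stock transfer was 300 nL into about 60 µL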
UCH37 DUB inh = inhibitors of human UCH37 deubiquitinase, primary screen, biochemical, Ub-AMC cleavage, fluorescence. 0.33% of 330,000 active. purified proteasome/UCH37. inhibition, % (no concentration beside the values). Ubiquitin carboxyl-terminal hydrolase isozyme L5 (Homo sapiens), Q9Y5K5;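 active = mean of two replicates above 20%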;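 also: 0% = compound-free wells with enzyme and 100% = wells lacking proteasome; stock transfer was 100 nL into about 20 µL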
Target sequence (Q9Y5K5 whole entry, looked up): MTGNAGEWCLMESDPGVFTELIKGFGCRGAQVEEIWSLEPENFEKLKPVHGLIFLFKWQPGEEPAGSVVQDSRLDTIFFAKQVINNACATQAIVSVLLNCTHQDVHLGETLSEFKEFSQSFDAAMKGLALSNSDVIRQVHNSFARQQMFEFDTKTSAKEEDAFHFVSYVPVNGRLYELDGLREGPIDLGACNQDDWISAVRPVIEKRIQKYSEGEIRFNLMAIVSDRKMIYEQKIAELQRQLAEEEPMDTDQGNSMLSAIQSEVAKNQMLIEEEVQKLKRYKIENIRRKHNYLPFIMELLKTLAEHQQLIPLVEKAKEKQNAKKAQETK
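Schedule: 30 min plus 25 min, room temperature / Material: human UCH37 within purified proteasomes / Technique: AMC fluorescence intensity at 355/460 nm / Buffer or medium: pH 7.4 Tris-HCl (50 mM) with ovalbumin, ATP-MgCl2, DTT / Controls: wells without proteasome as full block, compound-free enzyme plus substrate as uninhibited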
MLL AF4-AF9 inh = inhibitors of AF4 peptide binding to AF9, primary screen, biochemical, AlphaScreen, biotin-AF4 peptide, FLAG-AF9, single point. Protein AF-9 (Homo sapiens), P42568. inhibition, % at 10 µM. 0.47% of 350,000 active. AID 651704, 2012;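 active = every replicate reaching a set inhibition limit, whatever the replicate mean, cut at about 25% in these data; inconclusive = mean inhibition reaches that limit but some replicates miss it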;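 also: 0% = plate neutral control median and 100% = total signal loss; the record names both 10 and 1 µM as test concentration; the first replicate is given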
Target sequence (P42568 whole entry, looked up): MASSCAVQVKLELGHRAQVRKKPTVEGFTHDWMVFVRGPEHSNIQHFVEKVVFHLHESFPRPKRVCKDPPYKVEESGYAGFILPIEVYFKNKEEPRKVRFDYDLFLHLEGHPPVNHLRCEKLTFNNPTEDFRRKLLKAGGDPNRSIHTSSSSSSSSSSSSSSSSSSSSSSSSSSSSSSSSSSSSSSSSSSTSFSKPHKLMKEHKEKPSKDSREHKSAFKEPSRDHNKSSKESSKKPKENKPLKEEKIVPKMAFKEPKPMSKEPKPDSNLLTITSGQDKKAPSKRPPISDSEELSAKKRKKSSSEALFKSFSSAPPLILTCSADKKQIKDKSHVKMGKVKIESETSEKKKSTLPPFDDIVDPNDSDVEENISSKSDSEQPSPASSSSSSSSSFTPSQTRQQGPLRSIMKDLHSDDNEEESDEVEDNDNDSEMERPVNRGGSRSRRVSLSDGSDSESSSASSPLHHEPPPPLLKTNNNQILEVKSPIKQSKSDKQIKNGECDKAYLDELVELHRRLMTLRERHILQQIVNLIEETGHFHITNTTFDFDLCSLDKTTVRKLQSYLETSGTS
Ecoli rRNA inh = reduced GFP signal of wild-type E. coli, primary screen, bacterial rRNA inhibitor project, GFP/RFP fluorescence, OD600, single point. E. coli WT GFP vs humanized-ribosome RFP mutants, 24 h; active compounds read low; DMSO median 0, no signal -100. GFP signal change (wild-type ribosome), % (no concentration beside the values). 1.6% of 350,000 active;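 active = significant combined selectivity score with lowered wild-type GFP, culture density cut under 30%, mutant RFP and density less affected; inactive = any of these conditions unmet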; also: one replicate is shown; some compounds called inactive have numbers as strong as hits
Ecoli rRNA inh OD600 = recorded beside Ecoli rRNA inh, whose call it bears; OD600 change, %; measured here: OD600 growth;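 optical density of the mix in the first replicate; 0 = DMSO median and -100 = no signal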
Ecoli rRNA inh RFP = recorded beside Ecoli rRNA inh, whose call it bears; RFP signal change, %; measured here: RFP humanized mutant strains;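 first replicate; 0 = DMSO median and -100 = no signal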
Numbers without * were called inactive; i = inactive; ? = inconclusive; · = no result given. These rows are one share of the data (hit frequency here may not be typical).

SMILES | FGF22 binding | A1 inh | Beta cell apopt | T cruzi inh | E coli growth | UCH37 DUB inh | MLL AF4-AF9 inh | Ecoli rRNA inh | Ecoli rRNA inh OD600 | Ecoli rRNA inh RFP
Cc1ccccc1C(=O)N1CCN(c2ccc([N+](=O)[O-])c(N3CCOCC3)c2)CC1 | · | -0.2 | -6 | 10 | 0.74 | 10 | · | · | · | ·
CN(c1cccc(NC(=O)COc2ccc(Cl)cc2Cl)c1)S(C)(=O)=O | · | -0.5 | 2 | 4 | 0.71 | 6.8 | · | · | · | ·
O=C(N/N=C/c1ccc([N+](=O)[O-])o1)c1cn2ccc3ccccc3c2n1 | i | 0.4 | -3 | 49 | · | · | 4.0 | 1 | -2 | 3.2
CC(Oc1ccccc1)C(=O)Nc1nnc(S(=O)(=O)N2CCCCC2)s1 (centres undefined) | i | -0.3 | 9 | -5 | 0.69 | 1.9 | -0.2 | -3 | -24 | -4.7
N#C/C(=C\c1c(F)cccc1Cl)C(=O)NC1CC1 | i | 0.7 | -4 | -18 | 0.71 | -0.1 | -0.7 | 6 | -5 | 1.1
CCOC(=O)N1CCN(C(=O)/C=C/c2ccc([N+](=O)[O-])cc2)CC1 | i | 0.0 | 2 | -1 | 0.73 | 6.5 | -1.7 | 5 | 12 | 2.3
CCOc1ccc(N(CC(=O)NCC(C)C)S(C)(=O)=O)cc1 | · | -0.6 | -4 | -3 | 0.69 | 4.3 | · | · | · | ·
Cc1ccc(C)c(S(=O)(=O)Nc2ccc(C(=O)NCCCN3CCCC3=O)cc2)c1 | i | 0.0 | -1 | -24 | 0.7 | 1.4 | -1.3 | 11 | 6 | 4.3
COc1ccc(C(=O)Nc2cccnc2)cc1C(=O)Nc1cccnc1 | · | -0.1 | -1 | -3 | 0.68 | 0.3 | -3.7 | · | · | ·
Cc1cc(C)c(S(=O)(=O)Nc2ccc(O)cc2)c(C)c1 | · | -0.4 | -3 | -1 | 0.72 | 1.6 | · | · | · | ·
COc1ccc(N2CCN(C(=O)COC(=O)CCOc3ccc(C(C)(C)C)cc3)CC2)cc1 | i | -0.5 | 2 | 0 | 0.7 | 5.0 | -2.3 | -2 | 10 | 0.1
COc1ccc(C(=O)C2CCCN(C(=O)c3cccnc3SC)C2)c(C)c1 (centres undefined) | · | ? | -5 | 4 | 0.66 | 2.8 | 0.6 | -20 | -22 | -5.8
CCn1c(=O)c2c(nc(SCC(=O)N3CCCC(C)C3)n2C)n(C)c1=O (centres undefined) | i | -0.1 | 1 | 12 | 0.65 | 3.3 | -1.8 | -2 | -3 | -1.8
COc1ccccc1CN1C(=O)[C@@H]2C(CCC(N)=O)NC3(C(=O)Nc4c3ccc(Cl)c4C)[C@@H]2C1=O (some centres undefined) | · | -0.2 | 1 | 6 | 0.72 | -1.9 | · | · | · | ·
O=C(CSc1ccc([N+](=O)[O-])cc1)NCC1CCCCC1 | i | 0.2 | -1 | 28 | 0.69 | 3.1 | -0.8 | -2 | -1 | 0.9
Cc1ccc(NC(=O)C(=S)NCc2ccco2)cc1 | · | -2.7 | -4 | · | 0.81 | 5.6 | · | · | · | ·
COc1ccc(/C=C/C(=O)c2ccc(OC)cc2OC)c(OC)c1 | i | 0.8 | -4 | 18 | 0.7 | 1.8 | 8.0 | · | · | ·
CCC(C)(C(=O)NC1CCCCC1)N(Cc1ccco1)C(=O)CNC(=O)c1ccccc1 (centres undefined) | · | 0.1 | 0 | -4 | 0.75 | 0.8 | · | · | · | ·
O=C(O)c1cc(N/N=C/c2ccncc2)ccc1Cl | i | -6.4 | -1 | -7 | · | · | 5.9 | 16 | 7 | -2.2
CCCc1cc(=O)[nH]c(SCC(=O)NC2(C#N)CCCCC2)n1 | i | -0.4 | -3 | · | 0.7 | 2.8 | -3.4 | · | · | ·

Entries shown so far that have a cyano group (2):
SMILES | FGF22 binding | A1 inh | Beta cell apopt | T cruzi inh | E coli growth | UCH37 DUB inh | MLL AF4-AF9 inh | Ecoli rRNA inh | Ecoli rRNA inh OD600 | Ecoli rRNA inh RFP
N#C/C(=C\c1c(F)cccc1Cl)C(=O)NC1CC1 | i | 0.7 | -4 | -18 | 0.71 | -0.1 | -0.7 | 6 | -5 | 1.1
CCCc1cc(=O)[nH]c(SCC(=O)NC2(C#N)CCCCC2)n1 | i | -0.4 | -3 | · | 0.7 | 2.8 | -3.4 | · | · | ·

Additional structures.
SMILES | FGF22 binding | A1 inh | Beta cell apopt | T cruzi inh | E coli growth | UCH37 DUB inh | MLL AF4-AF9 inh | Ecoli rRNA inh | Ecoli rRNA inh OD600 | Ecoli rRNA inh RFP
COc1ccc(N2CCCn3c2nc2c3c(=O)n(Cc3ccc(C)cc3)c(=O)n2C)c(OC)c1 | i | 0.8 | 13 | 16 | 0.69 | 3.3 | -49 | 5 | 8 | 1.7
C=C(C)c1cccc(C(C)(C)NC(=O)NCCN(CC)CC)c1 | i | 0.1 | -3 | -6 | · | · | 2.1 | 6 | 0 | -2.5
COc1ccccc1NC(=O)NC1(C(=O)N2CCN(C)CC2)CCCCC1 | i | 0.2 | -3 | -4 | 0.66 | 0.8 | 0.7 | 7 | 8 | -0.5
Clc1ccc(-c2cc(CSc3cccc(Cl)c3)on2)cc1 | · | -0.5 | -1 | 7 | 0.81 | 0.7 | · | · | · | ·
CCCCOC(=O)C1=C(C)NC(=O)NC1c1ccc(N(C)C)cc1 (centres undefined) | i | 0.9 | 0 | -15 | 0.67 | 2.6 | -7.0 | 6 | 11 | 2.8
CN(C)CCNC(=O)/C=N/O | i | 0.8 | -14 | -12 | · | · | -2.8 | 9 | 0 | 7.7
Cc1cc(C(=O)NNC(=O)C2CCCC2)c(C)o1 | i | 0.7 | -8 | -18 | 0.67 | 2.4 | -1.7 | 4 | 7 | 0.0
COC(=O)c1nc2nc(C)cc(C(F)(F)F)n2n1 | · | 0.4 | -6 | 16 | 0.71 | 0.5 | · | · | · | ·
CC(C)(C)c1cc(NC(=O)COc2ccc(Br)cc2)n(-c2ccccc2)n1 | · | 0.2 | 1 | 11 | 0.68 | 2.9 | · | · | · | ·
CCN(Cc1cnn(C)c1)Cc1nc(C2(c3ccc(C)cc3)CCCC2)no1 | i | 0.0 | 5 | 4 | 0.73 | 1.5 | 1.4 | -18 | -16 | -2.5
CC(C)(O)C1Cc2cc(/C=C/C(=O)O)c(O)cc2O1 (centres undefined) | · | · | · | 35 | 0.65 | -25 | -13 | 25 | 11 | 0.1
O=C(Nc1ccc2c(c1)OCCO2)C1CCCN1C(=O)Nc1ccc(F)cc1 (centres undefined) | i | 0.1 | -8 | -16 | · | · | -2.3 | 2 | 5 | -1.7
OC12CC3C[C@H](C1)C(N1CCOCC1)[C@@H](C3)C2 (some centres undefined) | i | 0.3 | 3 | 9 | 0.67 | 3.8 | -2.0 | 15 | 7 | -6.1
O=C(CCS(=O)(=O)c1cccc2nsnc12)NCc1ccccc1Cl | · | -0.9 | -11 | -2 | 0.71 | -2.3 | · | · | · | ·
Cc1ccccc1NC(=O)c1cc(S(=O)(=O)N2CCOCC2)cn1C | i | 2.2 | 0 | 4 | 0.7 | 3.3 | 4.4 | -4 | 1 | 1.1
COc1ccc(C(O)Cn2ccsc2=NC(C)=O)cc1 (centres undefined) | i | 0.4 | · | 0 | 0.7 | 4.5 | -0.5 | -1 | -2 | -1.6
Cc1ccc(NC(=O)CN2CCCC2)cc1Br | i | 2.0 | · | -6 | 0.67 | 2.8 | -0.7 | 9 | 7 | 0.5
N#Cc1nc(-c2cccs2)oc1NCc1ccccc1Cl | · | -0.5 | 2 | 16 | 0.77 | -151 | · | · | · | ·
CC(C)(C)OC(=O)N1CCC(C(=O)Nc2cccc(C(=O)N3CCOCC3)c2)CC1 | i | 1.2 | -6 | · | 0.69 | -1.1 | 2.6 | 11 | 4 | -1.7
Cc1ccsc1C(=O)Nc1cc(C(C)(C)C)nn1-c1ccccc1 | i | -0.3 | 9 | 32 | 0.72 | 0.9 | -25 | 3 | -2 | -14
Nc1c(C(=O)Nc2ccc(Cl)c(Cl)c2)sc2nc(-c3cccnc3)ccc12 | · | 1.2 | -1 | 9 | 0.74 | 3.6 | · | · | · | ·
Cc1ccc(C)c(NC(=O)COC(=O)c2ccc[n+]([O-])c2)c1 | i | 0.5 | -6 | · | 0.64 | -0.3 | -1.0 | 6 | 22 | -0.7
Cc1cccc(Cn2cnc3c(NS(C)(=O)=O)c(C)c(C)cc32)c1 | · | 0.2 | -3 | 6 | 0.65 | 1.5 | · | · | · | ·
O=C(CN1C(=O)c2ccccc2S1(=O)=O)c1ccc(F)c(F)c1 | i | -0.8 | -4 | -12 | 0.69 | 1.9 | -1.3 | 4 | 6 | 0.2
COc1ccc(-n2nc3c(N4CCC(C(=O)NCc5ccccc5)CC4)nnc(C)c3c2C)cc1 | i | 1.4 | -7 | 12 | 0.72 | -145 | -1.3 | -2 | 0 | 0.8
COc1cc2ncnc(NCCc3ccccc3)c2cc1OC | i | 1.1 | 25 | 26 | 0.69 | -0.4 | 3.1 | -19 | -16 | 0.2
O=C(CSc1nnc(-c2ccccc2)c(-c2ccccc2)n1)NC1CCS(=O)(=O)C1 (centres undefined) | i | -0.5 | 0 | 5 | 0.74 | -0.8 | -1.1 | 18 | 4 | 1.0
Cc1cc2ccccc2c(=O)n1CC(=O)N(C)c1ccc(F)cc1 | · | -0.3 | -3 | 5 | 0.71 | -9.6 | · | · | · | ·
CCOCCn1c(=NC(=O)CSCC(=O)Nc2cc(C)on2)sc2cc(OC)ccc21 | i | 0.6 | -4 | -1 | 0.7 | -17 | -0.4 | -1 | 3 | 1.1
Cc1nnc(NN2CCOCC2)[nH]c1=O | i | -0.2 | · | -28 | 0.68 | -1.5 | -1.9 | 9 | 2 | -0.8
Cc1cccc(C)c1N=C1NN=C(c2ccccc2F)CS1 | · | -1.0 | 9 | 4 | 0.73 | 4.4 | · | · | · | ·
COc1ccccc1C(=O)NCC(=O)NC(C)CCc1ccccc1 (centres undefined) | i | -0.1 | -20 | 11 | 0.71 | -0.7 | -0.8 | 0 | 3 | 2.5

Retrieved by compound from above:
SMILES | FGF22 binding | A1 inh | Beta cell apopt | T cruzi inh | E coli growth | UCH37 DUB inh | MLL AF4-AF9 inh | Ecoli rRNA inh | Ecoli rRNA inh OD600 | Ecoli rRNA inh RFP
Cc1cc2ccccc2c(=O)n1CC(=O)N(C)c1ccc(F)cc1 | · | -0.3 | -3 | 5 | 0.71 | -9.6 | · | · | · | ·
COc1ccc(-n2nc3c(N4CCC(C(=O)NCc5ccccc5)CC4)nnc(C)c3c2C)cc1 | i | 1.4 | -7 | 12 | 0.72 | -145 | -1.3 | -2 | 0 | 0.8

Bioassay records (PubChem)
